RVFV N-RNA FP: blocks Rift Valley Fever Virus nucleoprotein binding to RNA; P21700; RVFV N-RNA binding, fluorescence polarization; active compounds read low; % bound, % (test concentration not listed); 20,000 tested, 0.1% active; AID 651828;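 active means between 0 and 58% in either replicate with normal brightness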;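 further: 100 nL library stock added to about 12 µL; 100% = protein and probe without compound and 0% = probe alone; numbers are from one replicate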
Target sequence (P21700 whole entry, looked up): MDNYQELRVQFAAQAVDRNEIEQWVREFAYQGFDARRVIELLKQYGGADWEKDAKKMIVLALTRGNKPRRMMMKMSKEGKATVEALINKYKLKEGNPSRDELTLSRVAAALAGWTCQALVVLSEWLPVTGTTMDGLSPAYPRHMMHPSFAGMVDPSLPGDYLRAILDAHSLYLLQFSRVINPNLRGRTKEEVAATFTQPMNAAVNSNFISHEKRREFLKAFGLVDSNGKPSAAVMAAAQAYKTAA
Numbers without * were called inactive; & = joins results of further samples. A portion of the library; rates above refer to the full screens.

Preview, four compounds:
compound	RVFV N-RNA FP
COC(=O)C(O)(c1ccc(N)c(OC)c1)C(F)(F)F (centres undefined)	94
CC1CCCCN1S(=O)(=O)c1ccc(NC(=O)/C=C/c2ccco2)cc1 (centres undefined)	84
O=c1[nH]cc(NCc2ccco2)c(=O)[nH]1	97
CCOC(=O)/C(C#N)=C\Nc1ccc(-c2nnc(C(F)(F)F)o2)cc1C	98

This part in full, previewed entries included:
compound	RVFV N-RNA FP
COC(=O)C(O)(c1ccc(N)c(OC)c1)C(F)(F)F (centres undefined)	94
CC1CCCCN1S(=O)(=O)c1ccc(NC(=O)/C=C/c2ccco2)cc1 (centres undefined)	84
O=c1[nH]cc(NCc2ccco2)c(=O)[nH]1	97
CCOC(=O)/C(C#N)=C\Nc1ccc(-c2nnc(C(F)(F)F)o2)cc1C	98
Cc1ccc(C)c(NC(=O)c2ccc(-n3cnnc3)cc2)c1	91
CCOc1ccc(-n2ccnc2SCC(=O)Nc2ccccc2)cc1	90
O=C1OCc2cccc3cccc(c23)S(=O)c2cccc3cccc1c23 (centres undefined)	101
C=CCn1c(C)c(C(=O)OC)sc1=Nc1ccccc1	79
O=C1NC(=O)c2c1c1c3ccccc3[nH]c1c1[nH]c3cc(Br)ccc3c21	100
CNC(=S)NNc1cc(C)c2c(C)nn(C)c2n1	103
Nn1c(CCn2c3ccccc3c3ccccc32)n[nH]c1=S	94
CC1=CCC(C(C)(C)NC(=O)c2ccccc2)C/C1=N/O (centres undefined)	95
Cc1ccc(C)c(NCN2C(=O)CSC2=O)c1	86
CC1CCN(C(=O)c2ccccc2NC(=O)Nc2ccccc2)CC1	97
CC(C)(C)c1ccc(NC(=O)NNc2ncccc2C#N)cc1	96
COC(=O)c1ccc(/C=N\NC(=O)CNc2ccc(C)cc2)cc1	88
O=C(CSc1ncnc2c1oc1ccccc12)c1ccc(Cl)cc1	101
COc1ccc(NC(=O)COc2cccc3c2CCN(C)C3=O)cc1	90
Cc1ccc(OCNC(=O)N2CCOCC2)cc1	94
CC(C)(C)NC(=O)[C@@H]1C[C@@H]2CCCC[C@@H]2CN1	104
O=C(c1ccco1)N1CCN(C(=O)C2CCCO2)CC1 (centres undefined)	99
CN(c1cccc(NS(C)(=O)=O)c1)S(C)(=O)=O	81
N#Cc1ccc(C2C3=C(CCCC3=O)NC3=C2C(=O)CCC3)cc1	98
NNC(=O)c1ccc(O)cc1	98
CN(Cc1nc(-c2ccccc2)no1)C(=O)Nc1ccccc1	94
O=c1c2cc3c(=O)n(-c4ccccn4)c(=O)c3cc2c(=O)n1-c1ccccn1	97
CC(C)NS(=O)(=O)NC(C)C	99
Cc1cc(C)c(OCCn2ccnc2)c(C)c1	117
O=C(CSc1cc(C(F)(F)F)c2cc3c(cc2n1)OCO3)NCCN1CCOCC1	99
CCOc1ccc(-n2nc3cc(C)c(NC(=O)c4ccc(Br)o4)cc3n2)cc1	94
CCOC(=O)CSc1nc2ccc(Br)cc2c(=O)n1C	92
CCC(=C(c1ccccc1)c1ccc(OCCN(C)C)cc1)c1ccccc1	96
CC(C)C(=O)Nc1ccc(C(=O)O)cc1	92
O=S(=O)(c1ccc(Cl)cc1)N(Cc1ccco1)CC(O)Cn1c2ccccc2c2ccccc21 (centres undefined)	95
CN(C)c1ccc2cccc(O)c2n1	99
O=C(O)/C=C1\SC(=O)N(Cc2ccccc2)C1=O	94
c1ccc(-c2nc(Cc3nc4ccccc4[nH]3)no2)cc1	101
CC1CC(C)CN(S(=O)(=O)c2ccc(/C(O)=C(\C#N)c3nc4ccccc4s3)cc2)C1 (centres undefined)	94
CCOC(=O)/C(C)=N/Nc1ccc(F)cc1	96
CN(C)c1ccc(/C=C2\CCCC3C2=NN(C(=O)c2ccco2)C3c2ccc(N(C)C)cc2)cc1 (centres undefined)	96
CC(=O)NCCCCCCNC(C)=O	99
O=C(Nc1cccc(-c2ccc(N3CCCC3)nn2)c1)c1ccccc1	88
COc1ccc(Cc2cnc(N)nc2N)cc1OC	102
Nc1nc(F)nc2c1ncn2[C@@H]1O[C@H](CO)[C@@H](O)[C@@H]1O	97
CCC1C(=O)C(C)(C)C(=O)OC1c1ccc(Cl)cc1 (centres undefined)	85
CN(C)CCNC(=O)c1ccc2c(c1)OCO2	93
CCOc1cc(C2=NS(=O)(=O)c3ccccc3N2)cc(OCC)c1OCC	100
CCCC(CC(=O)O)CC(=O)O	93
O=C(CSc1ncn[nH]1)N(C1CCCCC1)C1CCCCC1	93
Cc1ccc(O)c(NC(=O)c2ccc3c(c2)C(=O)N(Cc2ccco2)C3=O)c1	96
CCCS(=O)(=O)Nc1cccc(-c2cn3c(n2)SCC3)c1	92
CNC(=O)CSc1nnc2[nH]c(=O)cc(C)n12	110
NCCc1c[nH]c2ccccc12	91
Cc1ccc(C)c2[nH]c(=O)c(CCNC(=O)c3ccc(S(=O)(=O)N(C)C)cc3)cc12	98
CCn1c2ccccc2c2cc(CN3CCN(c4ccccn4)CC3)ccc21	91
CCN(CC)CCN1C(=O)C(=O)/C(=C(/O)c2ccc3c(c2)CC(C)O3)C1c1ccc(F)cc1 (centres undefined)	90
O=C(O)CCC(=O)N1CCN(c2ccc(Nc3ccccc3)nn2)CC1	97
CC(C)N(C(=O)COc1ccc2ccccc2c1)C(C)C	102
CC(=O)OCC(CCn1cnc2cnc(N)nc21)COC(C)=O	96&101&99
O=C(/C=C(\O)c1ccccc1)C(=O)NCc1ccccc1	92

Following part:
compound	RVFV N-RNA FP
O=C1CSC(=Nc2ccc(Cl)cc2)N1	89
c1ccc(-c2nn3c(CN4CCOCC4)nnc3c3ccccc23)cc1	91
CC1CCCCN1S(=O)(=O)c1ccc(I)cc1 (centres undefined)	103
CCN(CCO)C(=O)CC(c1ccccc1)c1cc(Br)ccc1O (centres undefined)	102
N/C(=N\OC(=O)c1cnc2n(c1=O)CCS2)c1ccc(C(F)(F)F)cc1	81
COC(Cn1c(-c2ccc(C)cc2)n[nH]c1=S)OC	95
CC(=O)N(C1=C(O)c2ccccc2C(=O)C1=O)c1ccccc1	96
COc1ccc(N2CCN(C(=O)CNC(=O)c3ccccc3)CC2)cc1	101
O=C(Nc1ccccc1)C1CC2CCC1C2 (centres undefined)	94
COc1ccccc1Oc1ccccc1C(=O)N1CCCCCC1	97
CCN(CC)CCOc1cc(C)cc(C)c1	87
CCCC1=NN(c2cccc(C(=O)O)c2)C(=O)C1	104
O=C(NCc1csc(-c2cccs2)n1)Nc1ccc2c(c1)OCCCO2	98
Cc1ccc(NC(=O)O/N=C/c2c(C)nn(C(C)(C)C)c2C)cc1Cl	93
Cc1ccc(SC(C)C(=O)Nc2ccc(N(C)C)cc2)cc1 (centres undefined)	99
CNC(=O)COc1c(C)c(C)cc(C)c1C	100
O=C(/C=C1/Nc2ccccc2NC1=O)Nc1cccc(C(F)(F)F)c1	99
O=C(Nc1sc2c(c1C(=O)NCc1cccnc1)CCC2)c1cccs1	97
O=C1SC(SCc2ccccc2)=N/C1=C\c1ccco1	99
Cc1cccc(OCC(=O)Nc2ccccc2N2CCCCC2)c1	116
CCCc1c(C)nc(SCC(C)C)[nH]c1=O	99
Cc1cccc(N/C(N)=N/c2nc(C(F)(F)F)cc(=O)[nH]2)c1	102
CCC(=O)c1ccc2c(c1)N(CCCN(C)C)c1ccccc1S2	92
CCOC(=O)C1CCN(c2cc(C(F)(F)F)nc3ccc(Br)cc23)CC1	93
CSc1nnc(-c2ccccc2)o1	99
Cc1nnc(NC(=O)c2ccc3c(c2)C(=O)N(C2CCCCC2)C3=O)s1	108
COc1cc(OC)c(C2=NOC(C(=O)Nc3cc(C)n(CC(=O)NCc4ccco4)n3)C2)cc1Cl (centres undefined)	97
COc1ccc(CCC(=O)N(C)C)cc1	99
OC[C@@H](O)[C@H](O)[C@@H](O)[C@H](O)CO	109
Cc1cc2occ(CC(N)=O)c2cc1Cl	96
COc1c[nH]n(-c2ccccc2)c(=O)c1=O	101
Cc1ccc2nc(-c3cccc(NC(=O)C4CCCO4)c3)oc2c1 (centres undefined)	98
CCc1ccc(/C=C2\SC(=O)N(CC(=O)N3CCOCC3)C2=O)cc1	100
Cc1ccc(-c2nc3ncccc3o2)cc1NC(=O)/C=C/c1ccc(Cl)cc1	92
COc1c(C(=O)O/N=C(\N)c2cccs2)csc1Cl	95
Cc1ccc(N(C)C(=O)n2nc(C)cc2C)cc1	94
COc1ccc(OC)c(NC(=O)c2oc3c(c2C)C(O)CC(C)(C)C3)c1 (centres undefined)	92
ON=C1c2ccccc2-c2ccccc21	95
COc1cc(S(=O)(=O)Nc2ccc(NC(C)=O)cc2)ccc1F	99
O=C(Nc1cc(C(F)(F)F)cc(C(F)(F)F)c1)c1cc(Cl)ccc1O	102
CC(C)(C)C(=O)CC1(O)C(=O)N(Cc2ccccc2)c2ccccc21 (centres undefined)	102
Nc1ncnc2c1ncn2[C@@H]1O[C@H](COP(=O)(O)OP(=O)(O)OP(=O)(O)OP(=O)(O)OC[C@@H]2O[C@H](n3cnc4c(N)ncnc43)C(O)[C@@H]2O)[C@H](O)C1O (some centres undefined)	100
COc1ccc(C(=O)CSc2nnc(-c3cc4cc(Cl)ccc4o3)n2C)cc1	110
O=C(CCN1C(=O)/C(=C\c2cccs2)SC1=S)NC1=NCCS1	96
CN1[C@@H]2CC(OC(=O)[C@H](CO)c3ccccc3)C[C@H]1[C@@H]1O[C@@H]12 (some centres undefined)	97&92
Cc1cc2c(=O)n(Cc3ccco3)c(SCC(=O)N3CCc4ccccc4C3)nc2s1	88
CC(C)c1ccc(/C=N/NC(N)=S)cc1	88
S=c1[nH]c2ccccc2nc1N1CCOCC1	91

Another view of some results above.
ON=C1c2ccccc2-c2ccccc21
  RVFV N-RNA FP: 95

COc1cc(S(=O)(=O)Nc2ccc(NC(C)=O)cc2)ccc1F
  RVFV N-RNA FP: 99

Next section
compound	RVFV N-RNA FP
Cc1ccc(-c2nc3n(n2)C(=O)CC(c2ccc4c(c2)OCO4)S3)cc1 (centres undefined)	95
Cc1ccc(C(C)(C)C)c(OCCN2CCCC2)c1	99
CC1=C(C(=O)Nc2ccc(C)cc2)C(c2ccco2)n2c(nc3ccccc32)N1 (centres undefined)	93
CNC(=O)NC(=O)Cn1nc2n(c1=O)-c1ccccc1SC2	98
COc1ccc(I)c(OC)c1	95
CCCOc1ccc(C2c3c(oc4ccc(Cl)cc4c3=O)C(=O)N2CCN(CC)CC)cc1OC (centres undefined)	99
CCN1C(=O)c2c(C)nc3ccccc3c2C1=O	103
CC(C)=NNc1c(Cl)cc(Cl)cc1Cl	103
Cc1c(Cl)cccc1NC(=O)CSc1nc(=O)n(CCN2CCOCC2)c2c1CCCC2	87
N[C@@H](C(=O)N[C@@H]1C(=O)N2C(C(=O)O)=C(CSc3cn[nH]n3)CS[C@H]12)c1ccc(O)cc1 (tested in a mixture with another compound)	89
CC(Oc1ccc(Br)cc1)C(N)=O (centres undefined)	99
CCCOC(=O)c1ccc(NC=O)cc1	107
O=C(Nc1nc2cc3c(cc2s1)OCO3)c1ccc2ncsc2c1	94
O=C(O)c1cccc(NC(=S)NC(=O)c2cccnc2)c1	87
O=C(NCCc1ccccc1)c1nn2cccnc2c1Cl	94
CCc1cc2c(=O)c(-c3ccc4c(c3)OCCO4)c(C)oc2cc1O	99
Cc1cc(OCC(=O)O)c(C(C)C)cc1Br	99
CC(C)c1ccc(NC(=O)Cn2nnc(C(=O)NCc3ccccc3)c2N)cc1	93
Cc1ccc(C=Nc2ccc(C(N)=O)cc2)s1	84
c1ccc(Oc2nc(N3CCOCC3)nc(N3CCOCC3)n2)cc1	97
CC(C)=C1C2CCC1C(C(=O)N1CCN(c3ccccc3Cl)CC1)C2C(=O)O (centres undefined)	100
O=C1C(=Cc2ccc(N3CCOCC3)o2)C(=O)c2ccccc21	108
CCO/N=C(/C)C1=C(O)C(C(=O)OC)C(C)(C)CC1=O (centres undefined)	102
O=C1c2cccc3c2[C@H](CCC3)CN1[C@@H]1CN2CCC1CC2	96
C=CCN1C(=O)C(CC(=O)Nc2ccc(OC)cc2)N(Cc2ccco2)C1=S (centres undefined)	95
CC(C)NC(=O)c1ccccc1Sc1ccccc1	98
CC(C)(C)c1ccc(C(O)CCCN2CCC(C(O)(c3ccccc3)c3ccccc3)CC2)cc1 (centres undefined)	95&92
O=C(N1CCN(c2ccccc2)CC1)N(c1ccccc1)c1ccccc1	100
O=C(Cc1ccccc1)NCCSCc1ccco1	108
Cc1cc(C)cc(NS(=O)(=O)c2cn(C)c(=O)n(C)c2=O)c1	103
O=S(=O)(NCc1ccco1)c1cccc2cccnc12	92
CCC(C(=O)NN1C(=O)c2ccccc2C1=O)c1ccccc1 (centres undefined)	91
COc1cccc(Nc2ccc(-n3ccnc3)nn2)c1	111
C/C(=C\c1ccccc1)CN1CCCN(C)CC1	89
Cc1cc(S(=O)(=O)NC(C)C)ccc1OCC(=O)NC1CC1	109
CCc1noc(C)c1C(=O)N1CCOCC1	98

As entered above:
Value of `Cc1cc(S(=O)(=O)NC(C)C)ccc1OCC(=O)NC1CC1` in RVFV N-RNA FP: 109
Value of `O=C(N1CCN(c2ccccc2)CC1)N(c1ccccc1)c1ccccc1` in RVFV N-RNA FP: 100
Value of `Cc1cc(C)cc(NS(=O)(=O)c2cn(C)c(=O)n(C)c2=O)c1` in RVFV N-RNA FP: 103
Value of `O=S(=O)(NCc1ccco1)c1cccc2cccnc12` in RVFV N-RNA FP: 92

More records:
compound	RVFV N-RNA FP
S=C(S)OC1CC2CC1C1CCCC21 (centres undefined)	91
CN(C)C(=O)Oc1nnc(SCCS(=O)(=O)c2ccc(F)cc2)n1C1CC1	89
CCN(CC)C(=O)C1CCCN(C(=O)Nc2ccccc2)C1 (centres undefined)	94
Cc1nnc(Nc2ccc(C(N)=O)cc2)c2ccccc12	98
